KCNQ2 pot: potentiators of rat KCNQ2 potassium channel | Potassium voltage-gated channel subfamily KQT member 2 (Rattus norvegicus), O88943 | CHO-K1 KCNQ2, FluxOR thallium flux fluorescence; active compounds read high | B-score at 10 µM | 310,000 tested, 0.54% active | AID 2239, 2010;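 active = fluorescence ratio B-score at least 3 SD of library B-scores, with initial fluorescence B-score within 3 SD, cut at about 5.3 in these data; same plate scores as AID 2156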;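 also: B-score of peak minus minimum over baseline fluorescence ratio after K+ and Tl+ stimulus; positive B-score means potentiation of KCNQ2 with more thallium influx and brighter signal; only the inactives scoring about 0 or higher are listed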
Target sequence (O88943 whole entry, looked up): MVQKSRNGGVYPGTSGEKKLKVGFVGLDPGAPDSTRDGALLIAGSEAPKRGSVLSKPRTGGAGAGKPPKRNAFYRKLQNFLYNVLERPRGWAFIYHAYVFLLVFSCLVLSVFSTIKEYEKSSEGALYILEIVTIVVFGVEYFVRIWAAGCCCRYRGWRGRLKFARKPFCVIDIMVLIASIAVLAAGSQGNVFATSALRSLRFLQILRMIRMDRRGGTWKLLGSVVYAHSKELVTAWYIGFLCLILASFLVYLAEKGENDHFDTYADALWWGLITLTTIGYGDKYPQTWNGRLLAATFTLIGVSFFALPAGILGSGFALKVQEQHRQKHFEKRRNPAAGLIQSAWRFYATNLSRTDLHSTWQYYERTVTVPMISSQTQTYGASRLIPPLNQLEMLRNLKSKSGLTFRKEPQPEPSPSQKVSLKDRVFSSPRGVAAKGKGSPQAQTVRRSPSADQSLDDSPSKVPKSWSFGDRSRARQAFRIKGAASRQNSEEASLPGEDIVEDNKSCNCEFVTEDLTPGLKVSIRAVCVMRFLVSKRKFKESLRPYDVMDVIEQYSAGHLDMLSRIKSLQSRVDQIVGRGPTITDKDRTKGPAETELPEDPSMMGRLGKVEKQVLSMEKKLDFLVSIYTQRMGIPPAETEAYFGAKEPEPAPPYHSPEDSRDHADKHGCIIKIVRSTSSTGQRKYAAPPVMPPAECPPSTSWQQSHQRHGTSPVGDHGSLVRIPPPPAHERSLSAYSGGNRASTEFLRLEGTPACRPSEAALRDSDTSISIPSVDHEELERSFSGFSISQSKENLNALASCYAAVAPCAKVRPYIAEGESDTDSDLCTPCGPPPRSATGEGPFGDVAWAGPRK
KCNQ2 pot baseline: also measured in KCNQ2 pot; calls as there; B-score; compound at 10 µM; measured here: initial fluorescence intensity artifact check;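 brightness before thallium and not channel activity; 0 = typical well and far values either way flag optical interference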
* marks the source's active call; other numbers are inactive results; x = no result given.

Order of results: KCNQ2 pot | KCNQ2 pot baseline
Cc1cccc(C)c1NC(=O)CNCC(=O)Nc1c(C)cccc1C
    1.4 | -0.75
COc1ccc(S(=O)(=O)N2CCCC(C(=O)N3CCOCC3)C2)cc1Cl (centres undefined)
    -5.6 | x
COc1cc([N+](=O)[O-])cc2cc(C(=O)N3CCN=C3c3ccccc3)c(=O)oc12
    0.38 | 0.89
Nc1cccc(C(=O)N/N=C/c2ccsc2)c1
    0.01 | 0.47
O=C(OCC(=O)N1CCc2ccccc21)c1cncc(Br)c1
    1 | -1.4
COC(=O)c1nn(-c2ccc(-c3ccccc3)cc2)cc1O
    1.3 | -0.03
CCCc1nc2sc3c(c2c(=O)n1NC(=O)c1ccco1)CC(C)(C)OC3
    1.7 | 1.4
O=C(NCc1ccncc1)c1cccc(Cn2cc(Br)cn2)c1
    0.53 | 0.06
O=C(c1ccccc1Cl)N1CCC(n2cccc2)CC1
    0.26 | 1.7
CCc1c(O)cc2n(c1=O)-c1ccc(Cl)cc1C2(C)C
    0.28 | -0.6
Cc1nnc(SCC(=O)Nc2cc(Cl)ccc2Cl)n1CC1CCCO1 (centres undefined)
    0.57 | 0.75
CCN(CC)S(=O)(=O)c1ccc2[nH]c(=O)cc(C(=O)Nc3cccc(C(C)=O)c3)c2c1
    4.2 | -0.01
CCCN(CCC)CCNC(=O)C1CCCN(S(=O)(=O)c2ccc3c(c2)oc(=O)n3C)C1 (centres undefined)
    0.46 | -0.04
Cc1cccc(N(CC(=O)NC2CCCC2)C(=O)CNC(=O)c2ccco2)c1C
    0.8 | -0.69
COC(=O)c1c(-c2ccccc2)csc1NC(=O)C1CC=CCC1C(=O)O (centres undefined)
    2 | 0.27

Additional results
Order of results: KCNQ2 pot | KCNQ2 pot baseline
CCOC(=O)c1sc2nc(CC(=O)OC)nc(NCc3ccco3)c2c1C
    1.5 | -1
CN1CCN(/C(=N\O)c2nonc2N)CC1
    0.02 | 1.9
CCS(=O)(=O)N1CCC(C(=O)NCCc2ccc(C)cc2)CC1
    0.25 | 1.1
COC(=O)c1ccc(NC(=O)C2CCCN2S(=O)(=O)c2ccc(F)cc2)cc1 (centres undefined)
    1 | -0.39
COc1cc(Br)ccc1NC(=O)c1ccccc1-c1ccccc1C(=O)O
    0.68 | 1.1
COc1ccc(OCC(=O)Nc2ccccc2N2CCN(C)CC2)cc1
    1.9 | -0.2
COc1ccc(CCN(Cc2cccs2)S(=O)(=O)c2ccc(S(=O)(=O)N3CCCCCC3)cc2)cc1OC
    0.37 | 1.5
Cc1cccc2cc(C(c3nnnn3CC3CCCO3)N3CCCc4ccccc43)c(=O)[nH]c12 (centres undefined)
    0.32 | -1.1
O=C(CN1C(=O)c2ccccc2C1=O)Nc1ccccc1F
    0.5 | -2
O=C(N/N=C/c1cccc(F)c1)c1c(O)c2ccccc2[nH]c1=O
    0.29 | -0.19
Cc1cccc(/C=C2/SC(=O)N(Cc3ccccc3)C2=O)n1
    1.4 | 0.02
O=C(NC1(C(F)(F)F)N=C2SCCN2C1=O)c1ccccc1F (centres undefined)
    0.84 | 1.2
CCOc1ccc(OCC)c(NC(=O)CSCC(=O)O)c1
    1.5 | -0.23
COc1ccccc1NS(=O)(=O)c1ccc2c(c1)NC(=O)CC(=O)N2
    0.55 | 1.5
CCOc1ccc(/C=N/OCC(=O)Nc2cc(C)on2)cc1
    1.3 | -0.95

Later entries:
Order of results: KCNQ2 pot | KCNQ2 pot baseline
CC(C)N(C)S(=O)(=O)c1ccc(NC(=O)CSC(=S)N2CCCC2)cc1
    1.3 | -2.2
Cc1ccc(O)c(-c2cc(-c3ccccc3F)[nH]n2)c1
    1.2 | -0.56
O=C(O)c1cccc(NS(=O)(=O)c2ccc3c(c2)OCCCO3)c1
    0.78 | 0.59
CCC(C(=O)O)n1cnc2scc(-c3ccc(C)c(C)c3)c2c1=O (centres undefined)
    0.04 | 0.07
Cc1cc(C)c(C#N)c(SCc2cn3ccccc3n2)n1
    1.5 | -1.3
CCC(=O)Nc1nonc1-c1nc2ccccc2n1N(C(=O)CC)C(=O)CC
    0.07 | -0.33
NNC(=S)NC1CCCCC1
    0.08 | -1.4
CC(C)CNC(=O)c1cccc(NC(=O)COc2ccc([N+](=O)[O-])cc2)c1
    0.02 | 0.45
CCCCn1c(=O)[nH]c(=O)c2c1nc(COC(=O)c1c(C)noc1C)n2CCC
    0.04 | 0.41
CCCN(CCC)S(=O)(=O)c1ccc(C(=O)Nc2ccc(S(=O)(=O)Nc3nnc(CC)s3)cc2)cc1
    0.77 | -1.4
COC(=O)Cn1ncc(N2C3CC(CC(C)(C)C3)C2C)c(Cl)c1=O (centres undefined)
    0.41 | -2.7
CC(=O)N1CCN(S(=O)(=O)c2cccc(C(=O)Nc3ccccc3N3CCCC3)c2)CC1
    0.21 | -0.21
CCCNC(=O)CN1C(=O)COc2ccc(S(=O)(=O)N3CC(C)CC(C)C3)cc21 (centres undefined)
    0.43 | 1.4
Cc1ccc(OCC(=O)Nc2ccc(C(N)=O)cc2)cc1
    0.37 | -1.1
OCCC1CN(Cc2ccccc2OC2CCCC2)CCN1Cc1ccsc1 (centres undefined)
    0.54 | -0.32

Whole records from above:
CC(C)CNC(=O)c1cccc(NC(=O)COc2ccc([N+](=O)[O-])cc2)c1 across the screens: KCNQ2 pot: 0.02; KCNQ2 pot baseline: 0.45
CCC(C(=O)O)n1cnc2scc(-c3ccc(C)c(C)c3)c2c1=O (centres undefined) across the screens: KCNQ2 pot: 0.04; KCNQ2 pot baseline: 0.07

(next part)
Order of results: KCNQ2 pot | KCNQ2 pot baseline
COc1ccc(N2CCN(C(=O)Cc3ccc(S(=O)(=O)N4CCOCC4)s3)CC2)cc1
    0.04 | 0.11
O=C(NCC1CCCO1)C1CCCN(S(=O)(=O)c2cccc(C(F)(F)F)c2)C1 (centres undefined)
    0.4 | -3.2
CCn1c(CNC(=O)c2ccccc2F)nnc1SCC(=O)NC1CCCCC1C (centres undefined)
    0.5 | -0.01
CCOC(=O)c1ccc(NC(=O)CN2C(=O)C3C4C=CC(C4)C3C2=O)cc1 (centres undefined)
    1.3 | -0.03
COc1ccc(C(=O)COC(=O)CSCc2c(C)noc2C)cc1OC
    0.56 | -1.5
CCn1c(SCC(=O)Nc2ccc(C)cc2)nc2nc3c(cc2c1=O)CCCC3
    1.1 | -1.1
CC1CCN(c2ccc3nnc(CCC(=O)N4CCCCC4)n3n2)CC1
    1.3 | -0.99
Cc1ccc(C(=O)N2CCCC2)cc1S(=O)(=O)N1CCCCC1
    0.21 | -0.09
CCOc1ccc(S(=O)(=O)NCCCN2CCOCC2)cc1
    0.7 | -0.06
Cc1cc(Cl)c2oc(C(=O)NC(C)c3ccncn3)c(C)c2c1 (centres undefined)
    0.69 | -1.3
N#Cc1ccc(CC(C(=O)O)N2Cc3ccccc3C2=O)cc1 (centres undefined)
    0.07 | -0.17
N#Cc1cc(S(=O)(=O)c2ccccc2)c(N)[nH]c1=O
    1.8 | 1.3
Cc1cccc(NC(=O)CSc2nnc(NC(=O)C3CC3)s2)c1C
    1.2 | -0.01
CCOC(=O)C1=C(COC(=O)/C=C/c2cccc(OC)c2OC)NC(=O)NC1C (centres undefined)
    0.65 | 0.58
Cc1c(S(=O)(=O)Nc2cc(Cl)ccc2Cl)c(=O)n(C)c(=O)n1C
    0.51 | 0

Additional records.
Order of results: KCNQ2 pot | KCNQ2 pot baseline
CC(/C=N/Nc1nnc2c(n1)[nH]c1ccccc12)=C\c1ccco1
    0.01 | 1.6
COc1ccc(CC(=O)NC2CCN(CC(=O)N3CCCc4ccccc43)CC2)cc1OC
    0.25 | 0.39
C/C(=N/N=C/c1ccc(N(C)C)cc1)c1ccccc1
    0.66 | -0.61
Cc1cc(=O)oc2c(C)c(OC(C)C(=O)NC3CCN(Cc4ccccc4)CC3)ccc12 (centres undefined)
    1.2 | -0.87
CCN=C(NS(=O)(=O)c1ccc(Br)cc1)c1ccc(Cl)cc1
    1.1 | 0.04
CCOc1ccccc1C(=O)Nc1cccc(-c2ccc3nncn3n2)c1
    1.2 | 0.01
O=C(Nc1ccc(C(=O)N2CCOCC2)cc1)c1cnn2c(C(F)F)cc(-c3ccccc3)nc12
    0.47 | -0.89
O=C(CCCSc1nc2ccccc2[nH]1)NCc1ccccc1F
    0.8 | -0.18
CCOc1c(Cl)cc(C(=O)NCCN2CCCCC2)cc1Cl
    0.29 | 0.73
C/C(=N\Nc1ccc(S(N)(=O)=O)cc1[N+](=O)[O-])c1cccs1
    0.15 | 0.66
C/C(=N\NC(=O)c1cc(-c2ccc(C)s2)[nH]n1)c1ccco1
    0.69 | 0.58
N#C[C@H]1C(O)C(O)c2ccccc2N1C(=O)c1ccccc1 (some centres undefined)
    0.02 | 0.91
O=C(Oc1ccnc2cc(Cl)ccc12)N1CCOCC1
    0.48 | 0.75
Cc1ccc2c(COn3nnc4ccc(S(=O)(=O)N(C)C)cc43)cc(=O)oc2c1C
    0.93 | 1.5
COc1ccc(N/N=C(/C#N)S(=O)(=O)c2nsc(C)c2C#N)cc1
    0.88 | 0

Next compounds.
Order of results: KCNQ2 pot | KCNQ2 pot baseline
CSc1ccc(Cl)c(C(=O)NC2CCCC2)c1
    0.1 | -0.82
O=C(CSc1nnc(-c2cccnc2)n1Cc1ccccc1)NCc1ccco1
    0.06 | -0.26
O=C(c1ccccc1)c1cc2ccc(O)cc2oc1=O
    0.66 | 0.04
CCOc1ccccc1-n1ccn(CC(=O)Nc2ccc(Br)cc2F)c(=O)c1=O
    0.02 | -1.2
Cc1ccc(S(=O)(=O)O/N=C2\CCCc3ccccc32)cc1
    1.5 | 0.01
CCc1noc(C)c1C(=O)N1CCCC(N2CCN(c3ccccc3F)CC2)C1 (centres undefined)
    0.99 | 0.03
Cc1ccc(Cn2nc(C)c(NC(=O)c3cc(C)no3)c2C)cc1
    1.9 | -1.1
C=C(C)CN1C(=O)C(O)(CC(=O)c2ccc3c(c2)OCCO3)c2ccccc21 (centres undefined)
    0.5 | 0.04
Cc1cc(C)c2sc(NNC(=O)c3ccc(S(=O)(=O)N4CCc5ccccc5C4)cc3)nc2c1
    2.9 | -0.47
CCOc1cccc(C(=O)NNC(=O)C2C3C=CC(C3)C2C(=O)O)c1 (centres undefined)
    0.28 | -0.43
COc1cc(C2Nc3cc(Cl)c(S(N)(=O)=O)cc3S(=O)(=O)N2)cc(OC)c1OC (centres undefined)
    0.52 | -0.01
O=C(c1ccc([N+](=O)[O-])cc1)N1CCN(c2ncc(Br)cn2)CC1
    0.21 | -1.5
CN1CCCN(C(=O)/C=C/c2ccc(F)cc2)CC1
    0.74 | -0.01
O=C(CNS(=O)(=O)c1ccc([N+](=O)[O-])cc1)N/N=C\c1ccc(O)cc1
    1.3 | -1.6
O=C(C1CCN(c2ncnc3c2nc2n3CCCCC2)CC1)N1CCCCC1
    1.1 | 1.4

In a second layout: results already given
molecule,KCNQ2 pot,KCNQ2 pot baseline
Cc1ccc(S(=O)(=O)O/N=C2\CCCc3ccccc32)cc1,1.5,0.01
CCc1noc(C)c1C(=O)N1CCCC(N2CCN(c3ccccc3F)CC2)C1 (centres undefined),0.99,0.03
Cc1ccc(Cn2nc(C)c(NC(=O)c3cc(C)no3)c2C)cc1,1.9,-1.1
C=C(C)CN1C(=O)C(O)(CC(=O)c2ccc3c(c2)OCCO3)c2ccccc21 (centres undefined),0.5,0.04

Other structures
Order of results: KCNQ2 pot | KCNQ2 pot baseline
CCc1c(C)nn(C(=O)/C(C#N)=C\N(C)C)c1C
    0.74 | 0.25
CN(C)C1(CNC(=O)Nc2ccccc2)CCCCC1
    0.01 | -0.77
Cc1cc(NS(=O)(=O)c2ccc(Cl)cc2)nn1CC(=O)NCc1ccco1
    0.43 | -0.24
O=C(Cn1cccc1C(=O)c1ccccc1)NCc1cccnc1
    0.34 | -0.07
COC(=O)c1ccc(-c2ccc(C(=O)N3CCCN(C)CC3)cc2)cc1
    0.09 | -0.7
Clc1ccc(C2CSc3c4ncnc-4ncn32)cc1 (centres undefined)
    0.78 | -1
CC(=O)c1ccc(OCC(O)CN2CCN(CCN3C(=O)c4cccc5cccc(c45)C3=O)CC2)cc1 (centres undefined)
    2 | -1.6
N#Cc1ccc(-c2csc(NNC(=O)c3ccccc3)n2)cc1
    0.01 | -1.7
O=C(NCCNS(=O)(=O)c1ccccc1Cl)c1cc(OCC(F)(F)F)ccc1OCC(F)(F)F
    0.11 | 1.3
COc1cc(NC(=O)C2CC2)c(OC)cc1NC(=O)CCC(=O)NC1CCN(Cc2ccccc2)CC1
    1.9 | 1.2
CCOCCCNC(=O)C1CCC(CNS(=O)(=O)c2ccc(Cl)cc2)CC1 (centres undefined)
    0.12 | 0.01
CCC(CC)C(=O)N1CCN(Cc2nc3ccccc3c(=O)[nH]2)CC1
    1.8 | -1.8
COc1cccc(-c2nc(NC(C)C)c3ccccc3n2)c1O
    0.37 | -0.1
Cc1ccc(S(=O)(=O)N2CCC(C(=O)NC3CC(C)(C)NC(C)(C)C3)CC2)cc1C
    0.29 | 0.01
CCCCOC(=O)c1ccc(NC(=O)C(=O)NCC2CCCO2)cc1 (centres undefined)
    2.2 | -1.2

Later entries:
Order of results: KCNQ2 pot | KCNQ2 pot baseline
CC(C)CC(CO)N1CCN(C(=O)c2ccccc2)CCC1=O (centres undefined)
    0.62 | 0.72
ClC1(Cl)CC1Cn1cnc2ccccc21 (centres undefined)
    1.2 | -0.89
Cc1cc(C)nc(CCNC(=O)C2CCC(=O)N(Cc3ccccc3F)C2)n1 (centres undefined)
    2.1 | -0.72
COc1ccccc1NS(=O)(=O)c1cc(NC(=O)CCc2nc3ccccc3c(=O)[nH]2)ccc1C
    1.8 | 1.4
O=C(CN1CCN(c2ccccc2)CC1)Nc1cccc([N+](=O)[O-])c1
    0.41 | -1.1
CS(=O)(=O)c1ccc(C(=O)Nc2ccccc2N2CCOCC2)c(Cl)c1
    0.01 | -0.01
CSc1ccc(CN2CCc3c([nH]c4ccccc34)C2)cc1
    0.01 | 0.07
COc1ccc(OC)c(NCc2nnc(-c3ccccc3)o2)c1
    0.04 | 1.4
CCCN1C(=O)/C(=C/c2ccc(OCc3ccc(C(=O)O)cc3)c(OC)c2)NC1=S
    2.7 | -0.97

These rows are one share of the data. The share of hits here may be higher or lower than overall.
